PABP FP inh: PABP poly(A) RNA binding inhibitors, primary screen, biochemical, fluorescence polarization, uHTS; Polyadenylate-binding protein 1 (Homo sapiens), P11940; AID 2014, 2009; 290,000 compounds, 1% hits; inhibition, % at 35 µM;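 active = 50% or more with normal probe brightness, or confirmed in later tests; inconclusive = above 50% with abnormal brightness, or retests that disagree; inactive = below 50% or failed in later tests; about a fifth of its hits are not listed in these tables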;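 also: calls also rest on retests at 20 µM and on dose response follow-up; controls were probe without protein and protein plus probe with vehicle; some compounds called inactive have numbers as strong as hits; many hits fall short of the cut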
Target sequence (P11940 whole entry, looked up): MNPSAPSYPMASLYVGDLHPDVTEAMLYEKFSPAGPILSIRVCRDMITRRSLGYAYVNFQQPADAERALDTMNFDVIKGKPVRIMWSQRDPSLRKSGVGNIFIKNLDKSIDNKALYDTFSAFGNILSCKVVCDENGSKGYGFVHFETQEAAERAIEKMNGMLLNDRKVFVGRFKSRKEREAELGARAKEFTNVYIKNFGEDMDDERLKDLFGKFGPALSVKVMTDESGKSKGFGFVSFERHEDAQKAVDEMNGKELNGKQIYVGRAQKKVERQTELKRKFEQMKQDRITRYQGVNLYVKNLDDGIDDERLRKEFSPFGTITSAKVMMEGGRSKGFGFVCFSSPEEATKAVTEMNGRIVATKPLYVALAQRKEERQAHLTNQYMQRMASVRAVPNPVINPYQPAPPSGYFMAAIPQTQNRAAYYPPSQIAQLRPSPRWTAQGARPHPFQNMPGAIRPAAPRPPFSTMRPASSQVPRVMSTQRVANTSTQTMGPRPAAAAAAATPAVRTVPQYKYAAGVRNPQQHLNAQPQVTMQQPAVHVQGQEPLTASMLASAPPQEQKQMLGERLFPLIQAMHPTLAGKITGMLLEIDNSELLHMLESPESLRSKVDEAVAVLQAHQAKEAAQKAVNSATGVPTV
eIF4H FP inh: human eIF4H binding inhibitors, primary screen, translation initiation inhibitor project, biochemical, uHTS, fluorescence polarization | Eukaryotic translation initiation factor 4H (Homo sapiens), Q15056 | eIF4H fluorescence polarization binding assay | inhibition, % at 35 µM | 290,000 compounds, 0.94% hits | AID 2012, 2009;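 active = 50% or more with normal probe brightness, or confirmed in later tests; inconclusive = above 50% with abnormal brightness, or retests that disagree; inactive = below 50% or failed in later tests; about a fifth of its hits are not listed in these tables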;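 also: calls also rest on retests at 20 µM and on dose response follow-up; 0% = protein and probe with vehicle and 100% = probe without protein; strong numbers were not always called active; many hits fall short of the cut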
Env fusion inh: inhibitors of HIV-1 Env-driven cell-cell fusion, primary screen, HeLa-JRFL effector, CEM21 target cells, luciferase | inhibition, % at 12.3 µM | 360,000 compounds, 1.1% hits | AID 651610, 2012;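 active = mean replicate inhibition score of at least 50 and every replicate individually at or above 50; inconclusive = only one of the two criteria met; inactive = mean below 50 and not all replicates reaching 50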;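 also: 0% = plate neutral controls and 100% = maraviroc near 300 nM; one replicate is shown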
CSC inhib: cancer stem cell viability inhibitors, primary screen, luminescence | cancer stem cell-like cells viability | inhibition, % at 7.5 µM | 300,000 compounds, 1.1% hits;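 active = mean at 75% or more and at least half the replicates too; inconclusive = mean and replicates disagree; tested in HMLE shEcad cells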;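 also: 0% = median of negative and 100% = median of positive control wells; the first replicate is given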
Rce1 inhib: yeast Rce1p protease inhibitors, primary screen, biochemical, fluorescence, cell-free homogeneous. CAAX prenyl protease 2 (Saccharomyces cerevisiae (strain ATCC 204508 / S288c)), Q03530. yeast membranes, quenched prenylated peptide cleavage fluorescence. calls only. 290,000 compounds, 0.27% hits. AID 2563, 2010;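 active = fall in fluorescence gain of 50% or more versus controls, with final raw signal at or below 3038400; inconclusive = same 50% fall but final raw signal above 3038400; inactive = fall in fluorescence gain under 50%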;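 also: plate controls were neutral control wells for no effect and wells lacking membranes for full effect; tested at 10 µM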
Target sequence (Q03530 whole entry, looked up): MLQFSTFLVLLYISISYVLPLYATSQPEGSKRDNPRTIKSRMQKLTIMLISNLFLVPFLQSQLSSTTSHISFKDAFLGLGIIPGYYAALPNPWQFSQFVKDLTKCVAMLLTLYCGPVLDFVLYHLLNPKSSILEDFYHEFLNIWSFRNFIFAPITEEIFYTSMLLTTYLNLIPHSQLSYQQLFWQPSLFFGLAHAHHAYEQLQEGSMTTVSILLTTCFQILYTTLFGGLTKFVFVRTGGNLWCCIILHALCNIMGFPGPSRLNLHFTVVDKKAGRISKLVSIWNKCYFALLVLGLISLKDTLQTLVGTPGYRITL
Yeast UUG start: modulators of yeast start codon fidelity, primary screen, whole organism, S. cerevisiae, single point, plate reader; S. cerevisiae UUG-firefly luciferase reporter, luminescence/redox ratio; activity score, % at 18.7 µM; 350,000 compounds, 0.13% hits;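 active = replicate mean at a twofold rise or more, about +100% in these data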;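 also: firefly luciferase made from a UUG start codon reports start codon fidelity; reporter light over untreated wells divided by growth signal over untreated wells; some hits fall short of that in this replicate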
MT1-MMP act inh: blockers of MT1-MMP proenzyme processing, primary screen, HT1080 RFP-PRO-GFP cells, GFP/RFP fluorescence; Matrix metalloproteinase-14 (Homo sapiens), P50281; GFP/RFP ratio fluorescence, overnight; percent of plate control window, DMSO zero; GFP/RFP ratio change, % at 20 µM; 360,000 compounds, 0.061% hits; AID 651647, 2012;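 active = GFP/RFP ratio change of at least 30% with cell ATP level not reduced by more than half and red fluorescence within 50% of control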; also: strong numbers were not always called active
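Assay system: RFP-PRO-GFP reporter HT1080 cells; read-out basis: GFP/RFP fluorescence ratio; benchmarks: DMSO wells and RFP-L50D-GFP cells; doses: 20 µM single dose, 1% DMSO; schedule: overnight cell settling, then overnight compound exposure, 37 °C, 5% CO2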
eIF4H FP inh retest: further read-out of eIF4H FP inh, marked with its call; inhibition, %; compound at 20 µM; confirmation average;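 mean of two retest wells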
PABP FP inh retest: recorded beside PABP FP inh, whose call it bears; inhibition, %; compound at 20 µM; confirmation repeats;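 mean of two retest wells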
MT1-MMP act inh RFP: second read-out of MT1-MMP act inh, no call of its own (marks repeat the call); RFP signal change, %; measured here: RFP expression control read;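 0 = vehicle wells; hits needed this value within 50% of zero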
The depositor's hits bear a star; i = inactive; ? = inconclusive; . = no result given.

SMILES	PABP FP inh	eIF4H FP inh	Env fusion inh	CSC inhib	Rce1 inhib	Yeast UUG start	MT1-MMP act inh	MT1-MMP act inh RFP	others
Cc1cc(F)ccc1S(=O)(=O)N1CCCOC1CNC(=O)C(=O)NC1CCCC1 (stereo unspecified)	4	0	1	-8	i	2	2	3
CCOc1ccc(N2C(=O)CSC23CCCCC3)cc1	-4	0	.	5	i	-1	-1	-4
O=C(CN1C(=O)C2CC=CCC2C1=O)Nc1ccccc1N1CCCC1 (stereo unspecified)	.	.	2	-13	i	.	-10	-3
CCC(=O)NCCNc1ccc([N+](=O)[O-])cn1	5	8	.	-9	i	.	.	.
CC(C)(C)S(=O)c1cccs1 (stereo unspecified)	7	-9	.	-8	i	-11	3	4
O=C(N/C(=C/c1ccc(Cl)cc1)C(=O)N1CCCC1)c1ccccc1	0	7	5	-20	i	14	1	0
COc1ccc(C(=O)N2CC(=O)Nc3ccc(C)cc3C2c2ccccc2)cc1 (stereo unspecified)	-2	-10	22	.	i	-12	-6	-3
O=C(CSc1nnc(Cc2cccs2)n1C1CCCCC1)N1CCCc2ccccc21	4	-2	.	58	i	-7	-5	-16
N#CC1=C(N)N(c2ccc(Oc3ccccc3)cc2)C(=O)C1	7	26	.	-4	i	.	1	7
COC(=O)c1cc(S(=O)(=O)N2CCN(c3ccccc3F)CC2)c[nH]1	2	-2	-6	-9	i	-6	8	-6
O=c1oc(CCO)cc2ccc(-c3ccc4[nH]ccc4c3)cc12	.	.	-111	-15	.	-27	-1	-2
Cc1ccc(CNC(=O)Cn2cnc(S(=O)(=O)N3CCCCC3)c2)o1	-11	2	-7	7	i	-2	-3	0
O=C(N1CCCC1)C12CC3CC(C1)CC(C(=O)N1CCCC1)(C3)C2	-10	-10	-13	-11	i	1	2	3
S=c1[nH]nc(CSc2nc3ccccc3s2)n1Cc1ccccc1	-8	-4	-91	-11	i	-23	2	-2
COc1ccc(C2c3ccsc3CCN2C(C)=O)cc1 (stereo unspecified)	1	-11	8	-2	i	-4	-4	-1
O=C(CCNC(=O)c1ccccc1Cl)NCC1CCCO1 (stereo unspecified)	.	.	.	-16	i	-17	0	4
Cc1c(/C(O)=C2/C(=O)C(=O)N(CCN3CCOCC3)C2c2ccccn2)cnn1-c1ccccc1 (stereo unspecified)	7	47	-2	-1	i	-36	0	7
COc1cc(/C=C2\C(C)=C(C#N)c3nc(N)c(C#N)c(C)c32)ccc1OCC(=O)O	44	13	0	-6	i	-1	19	34
CCOc1ccc(C(=O)Cn2cnnc2C#N)cc1	1	1	-3	-25	i	-22	-1	3
COc1ccc(-c2nnc(NC(=O)C(C)C)o2)cc1	11	8	4	-9	i	-7	3	4
c1ccc(C2Nc3cccc4cccc(c34)N2)cc1	62*	86*	-14	-3	i	-24	-2	4	eIF4H FP inh retest=120*;PABP FP inh retest=107*
Nc1nccc(/C=C/c2c(F)cccc2Cl)n1	1	3	-41	5	i	.	-13	-6
Cc1cc(NC(=O)CN2C(=O)NC3(CCC(C)CC3)C2=O)no1 (stereo unspecified)	-1	-8	0	-13	i	.	-2	2
COc1ccc(C(=O)Cc2nnc(C)s2)c(OC)c1	1	-6	-16	-11	i	.	-1	1

Ordered by molar mass (high to low): part of the list above.
SMILES	PABP FP inh	eIF4H FP inh	Env fusion inh	CSC inhib	Rce1 inhib	Yeast UUG start	MT1-MMP act inh	MT1-MMP act inh RFP	others
Cc1c(/C(O)=C2/C(=O)C(=O)N(CCN3CCOCC3)C2c2ccccn2)cnn1-c1ccccc1 (stereo unspecified)	7	47	-2	-1	i	-36	0	7
O=C(N1CCCC1)C12CC3CC(C1)CC(C(=O)N1CCCC1)(C3)C2	-10	-10	-13	-11	i	1	2	3
COc1ccc(C2c3ccsc3CCN2C(C)=O)cc1 (stereo unspecified)	1	-11	8	-2	i	-4	-4	-1
COc1ccc(C(=O)Cc2nnc(C)s2)c(OC)c1	1	-6	-16	-11	i	.	-1	1
c1ccc(C2Nc3cccc4cccc(c34)N2)cc1	62*	86*	-14	-3	i	-24	-2	4	eIF4H FP inh retest=120*;PABP FP inh retest=107*

Later entries:
SMILES	PABP FP inh	eIF4H FP inh	Env fusion inh	CSC inhib	Rce1 inhib	Yeast UUG start	MT1-MMP act inh	MT1-MMP act inh RFP	others
Nc1c(C(=O)Nc2ccc3c(c2)OCCO3)nnn1Cc1ccc(F)cc1	.	.	-100	11	i	-5	5	0
O=C(CS(=O)(=O)c1cn(CC(=O)N2CCCC2)c2ccccc12)Nc1ccccc1	11	3	.	-12	i	1	-3	-2
O=C(CN1C(=O)C2C3CCC(C3)C2C1=O)OCC(=O)c1ccccc1 (stereo unspecified)	2	-7	-1	-4	i	-17	-1	-1
CCOCCCNC(=O)C1(O)c2ccccc2NC(=O)N1c1ccc(C)c(C)c1 (stereo unspecified)	6	0	-1	-6	i	1	2	6
COc1ccccc1CNC(=O)COC(=O)C1CC1	.	.	-21	-18	.	-11	3	3
Cc1nc(-c2ccccc2)nc2[nH]c(C(C)C)cc(=O)c12	-3	-3	0	7	i	-39	5	7
CCOc1ccc(C(=O)NCC(=O)Nc2ccc(N3CCOCC3)cc2)cc1OCC	-4	-4	4	-5	i	.	0	2
Cc1c(C(=O)N2CCCC2)oc2c1-c1nn(CC(=O)NCCCOC(C)C)cc1CC2	4	10	0	-1	i	.	-1	-2
COC(=O)[C@H]1C[C@H]1[C@@H](NC(=O)c1ccc[nH]1)c1ccccc1	.	.	-38	-13	i	-8	3	3
O=C1[C@H](c2ccccc2)[C@@H](c2ccccc2)N1c1ccncc1	.	.	20	.	.	-9	-13	-10
Cc1ccc(CNC(=O)Cn2cncn2)cc1	12	6	-1	-12	i	-21	-3	0
CCSCc1nnc(SCC(=O)Nc2cccc(SC)c2)n1C	0	-5	.	-12	i	-24	-1	-5

Quoted at random: 6 records from the list
SMILES	PABP FP inh	eIF4H FP inh	Env fusion inh	CSC inhib	Rce1 inhib	Yeast UUG start	MT1-MMP act inh	MT1-MMP act inh RFP	others
Cc1c(C(=O)N2CCCC2)oc2c1-c1nn(CC(=O)NCCCOC(C)C)cc1CC2	4	10	0	-1	i	.	-1	-2
O=C(N1CCCC1)C12CC3CC(C1)CC(C(=O)N1CCCC1)(C3)C2	-10	-10	-13	-11	i	1	2	3
COC(=O)[C@H]1C[C@H]1[C@@H](NC(=O)c1ccc[nH]1)c1ccccc1	.	.	-38	-13	i	-8	3	3
COC(=O)c1cc(S(=O)(=O)N2CCN(c3ccccc3F)CC2)c[nH]1	2	-2	-6	-9	i	-6	8	-6
CCSCc1nnc(SCC(=O)Nc2cccc(SC)c2)n1C	0	-5	.	-12	i	-24	-1	-5
S=c1[nH]nc(CSc2nc3ccccc3s2)n1Cc1ccccc1	-8	-4	-91	-11	i	-23	2	-2

Next part
SMILES	PABP FP inh	eIF4H FP inh	Env fusion inh	CSC inhib	Rce1 inhib	Yeast UUG start	MT1-MMP act inh	MT1-MMP act inh RFP	others
O=C(NC1CCCCC1NC(=O)c1cccs1)c1cccs1 (stereo unspecified)	4	-8	-37	-11	i	-14	0	4
Cc1ccc(S(=O)(=O)c2nc(S(C)(=O)=O)sc2N2CCCC2)cc1	.	.	0	-13	i	-6	0	0
CC(=O)N1CCN(c2ccc(N)cc2)CC1	.	.	-4	2	.	-13	12	6
CCCCN(C(=O)c1c(-c2ccccc2)noc1C)c1c(N)n(CCC)c(=O)[nH]c1=O	.	.	2	-10	.	-6	5	7
O=C(c1ccccc1F)N(Cc1nc2ccccc2c(=O)[nH]1)C1CCCC1	0	3	-13	-5	i	.	0	-1
COc1ccc(CN(CC(=O)NCc2ccc(F)cc2)C(=O)c2csnn2)cc1	10	-6	4	4	.	5	-1	0
COc1ccc(OC)c(NC(=O)c2cc(OC(C)=O)cc(C(=O)Nc3cc(OC)ccc3OC)c2)c1	10	-4	?	0	i	15	21	-20
CC(C)C(=O)N1CCC(CN=Cc2c(O)n(C3CCCCC3)c(=O)n(C3CCCCC3)c2=O)CC1	-1	-2	.	.	.	3	-7	-9
COc1cc2[nH]c(=O)n(CCC(=O)N3CCN(c4cccc(C)c4C)CC3)c(=O)c2cc1OC	-8	-3	42	1	i	-14	3	-3
Cc1cccc(C)c1NC(=O)COC(=O)CSc1nnc(N)s1	9	6	10	-5	i	-21	-4	6
CC(=O)C(Cc1ccccc1)NC(=O)CN1CCc2ccccc2C1 (stereo unspecified)	38	5	-5	-3	i	.	-1	-3
CN(C)C(=O)Cn1c(SCC(=O)Nc2ccc3c(c2)OCO3)nc2ccccc21	-11	4	.	-12	i	-19	-1	3
Cc1cccc(CN2CCC(C(=O)Nc3ccc(Oc4cccnc4)cc3)CC2)c1	-6	-14	-358	-3	i	-15	3	-1
COc1ccc2nc3oc(C(=O)NCCCOC(C)C)cc3cc2c1	4	-5	-1	4	i	4	-2	-4
CCN(CC)CCN1C(=O)C(=O)/C(=C(/O)c2c(C)[nH]c(C(=O)OC)c2C)C1c1ccco1 (stereo unspecified)	3	4	-18	10	i	7	0	4
CCOc1ccc(CCNC(=O)COC(=O)CNS(=O)(=O)c2ccc(NC(C)=O)cc2)cc1OCC	.	.	-13	-7	i	-12	3	4
CCC(=O)NC(c1ccccc1Cl)c1c(O)ccc2ccccc12 (stereo unspecified)	5	-6	-16	9	i	.	0	-7
O=C(O)CC(CC(=O)Nc1ccc(C(=O)O)cc1)c1ccccc1 (stereo unspecified)	29	-10	-12	-14	i	-5	4	7
O=C(Nc1cc([N+](=O)[O-])ccc1N1CCCC1)c1cccs1	-5	-3	5	-14	i	7	3	-1
Nn1c(SCc2nc3ccccc3[nH]2)nnc1-c1cccnc1	-6	-4	10	-7	i	-27	4	6
COC(=O)c1cnn(-c2ccccc2)c1C(OC)OC	0	1	-11	-26	i	-11	-1	4
O=C(CCC(=O)N1CCSc2ccccc21)NC1CCCCC1	0	7	7	22	i	-12	4	6
COc1ccc(C(=O)Cc2ccc(OC)c(OC)c2)cc1	9	-3	36	.	i	-5	2	-1
Cc1cc(C)c(S(=O)(=O)N2CCN(C(=O)c3ccccc3OCc3c(C)noc3C)CC2)c(C)c1	.	.	3	.	.	6	-5	-4
COc1cc(N)c(Cl)cc1C(=O)OCC(=O)NC1CCCC1	-2	-12	-54	-5	i	-7	-1	-2
O=C(COc1ccccc1)NCc1n[nH]c(=S)n1-c1ccccc1	2	-6	-12	-6	i	.	-3	1
Cc1ccc(NC2Nc3cc(C)nn3S2)c(C)c1 (stereo unspecified)	13	-6	-28	-15	i	.	2	2
CCc1nn(CCCC(=O)N2CCN(c3cccc(C)c3C)CC2)c(=O)c2cc3occc3n12	-10	-12	15	74	i	-16	0	-4
CCOC(=O)c1ccccc1NC(=O)CN1CCC(n2nnc3cc(F)ccc32)CC1	.	.	-3	.	.	-9	1	2
COc1ccc(C(=O)N2CCC(c3ccccc3)CC2)c(OC)c1OC	2	2	28	-6	i	.	1	2
CCCCn1c(N)c(N(CCOC)C(=O)C2CCN(S(=O)(=O)c3ccc(F)cc3)CC2)c(=O)[nH]c1=O	.	.	.	-10	i	-23	1	4
